# Screening results (PubChem BioAssay)
# TRPV1 potentiator: HTS Assay for Compounds that Act as Potentiators of the Vanilloid Receptor 1; Transient receptor potential cation channel subfamily V member 1 (Homo sapiens), Q8NER1; potentiation, % at 8.33 µM; TRPV1-expressing cells, Fluo-8 calcium influx, capsaicin EC20 potentiation; host cell line not named in the record; control for the full effect not named in the record; 320,000 compounds, 0.02% hits; AID 540277, 2011; active means potentiation above 80%; inconclusive means 30% to 80%; inactive means below 30%; note: 0% is about no effect
#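 Cells expressing TRPV1 were dye-loaded with Fluo-8 and read kinetically: 10 s baseline, 3 min after compound (agonist portion), then 2 min after EC20 capsaicin (allosteric enhancer portion). Calcium-bound dye fluorescence at 480/520 nm.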
# PINK1 modulator: A Quantitative High throughput Screen to Identify Chemical Modulators of PINK1 Expression; PINK1 immunofluorescence, high-content cytometry, 24 h; Potency, µM (highest dose often 76.6 µM), for inactives: at the highest dose activation (PINK1 increase), actives largely listed as activators; 410,000 compounds, 0.2% hits; active = well fitted activation curve with a large enough effect; inconclusive = small, poorly fitted or top-dose-only effect; inactive = flat fitted curve, though single readings scatter; cell line not stated here;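 note: potency is the fitted concentration of half-maximal effect; % of control where 0% means no effect; nearly all actives have a fitted effect of over 65% in size; a mitochondrial uncoupler was the plate control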
#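 Fluorescence from anti-PINK1 antibody, together with nuclear and cell stains, was scanned on a laser-scanning cytometer. Before staining, stable-line cells were incubated 24 hours with compounds at 5 concentrations; primary antibody 12 h at 10 degrees C.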
# D2 potentiator: Beta-Arrestin HTS for Positive Allosteric Modulators of the Human D2 Dopamine Receptor: Potentiators | AID 624464, 2012 | potentiation, % (no concentration beside the values) | 360,000 compounds, 0.23% hits | D(2) dopamine receptor (Homo sapiens), P14416 | DiscoveRx D2 beta-arrestin cells, luminescence, 90 min; 100% = 57 uM dopamine signal; active = potentiation of 50% or more; inconclusive = 30% to 50%; inactive = 30% or less;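 note: compound concentration not given in the record; tested on top of an EC20 dose of dopamine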
# Target sequence (P14416 whole entry, looked up): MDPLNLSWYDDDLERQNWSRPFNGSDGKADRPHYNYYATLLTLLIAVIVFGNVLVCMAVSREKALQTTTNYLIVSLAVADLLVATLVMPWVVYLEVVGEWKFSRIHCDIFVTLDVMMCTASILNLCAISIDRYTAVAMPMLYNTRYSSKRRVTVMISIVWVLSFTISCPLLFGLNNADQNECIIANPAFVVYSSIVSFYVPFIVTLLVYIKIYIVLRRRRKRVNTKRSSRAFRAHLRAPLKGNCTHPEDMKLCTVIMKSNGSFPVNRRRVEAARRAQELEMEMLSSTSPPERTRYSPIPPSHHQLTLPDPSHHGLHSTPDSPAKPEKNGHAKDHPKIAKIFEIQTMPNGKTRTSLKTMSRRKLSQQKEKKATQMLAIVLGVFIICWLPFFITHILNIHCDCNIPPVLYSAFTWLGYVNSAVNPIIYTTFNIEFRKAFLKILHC
#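 D2 cells co-treated with compound plus 50 nM dopamine (EC20) for 90 min at 37 deg C to detect potentiation. Beta-arrestin recruitment was read as enzyme-fragment luminescence after 1 h at ambient temperature. Full response was set by 57 uM dopamine.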
# Six1-Eya2 blk: qHTS Assay for Inhibitors of the Six1/Eya2 Interaction; AlphaScreen GST-Six1/His-Eya2 binding, biochemical; stronger effect = lower value; control for the full effect not named in the record; activity change, % (concentration not given with the values); 360,000 compounds, 0.56% hits; in the data active = activity change below about -65%; inconclusive = about -30% to -65%; inactive = above about -30%; note: % is set by controls: 0 for no effect and ±100 for the full control effect
#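 Six1/Eya2 binding was read as AlphaScreen signal after compounds were pinned into GST-Six1 plus His-tagged Eya2 (5X stock 250/500 nM) in pH 8.0 Tris/NaCl/TCEP buffer, beads added, then incubated 1 h, 37 C, dark.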
# Sfp inh: qHTS Assay for Inhibitors of Bacillus subtilis Sfp phosphopantetheinyl transferase (PPTase). 4'-phosphopantetheinyl transferase ffp (Bacillus subtilis), Q9F4F7. Biochemical Sfp PPTase activity, qHTS. Potency, µM, without a hit: max response, negative = inhibition, most hits filed as inhibitors. 310,000 compounds, 3.5% hits; active = well fitted inhibition curve with a large enough effect; inconclusive = small, poorly fitted or top-dose-only effect, or another doubt; inactive = no such curve, though single readings can be large or run the other way;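 note: the enzyme is Sfp with the accession as filed and its product quenches rhodamine fluorescence; potency is the fitted concentration of half-maximal effect; 0% = enzyme reaction without inhibitor and -100% = no enzyme wells; top concentration of the series not given in the record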
#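 Sfp 15 nM + cpd, 15 min RT; start w/ rhodamine-CoA 5 uM, BHQ-2-YbbR 12.5 uM (final); 50 mM Hepes pH 7.6, 10 mM MgCl2, 0.01% NP-40, 0.01% BSA; read 525/598 nm at 0 and 30 min.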
# CtBP-E1A inh: qHTS Assay for Inhibitors of the CtBP/E1A Interaction; CtBP / adenovirus E1A interaction (AlphaScreen); AlphaScreen GST-E1A/His-CtBP binding, 1536-well; stronger effect = lower value; control for the full effect not named in the record; activity change, % (no concentration beside the values); 340,000 compounds, 0.49% hits; AID 651724, 2012; in the data active means activity change below about -65%; inconclusive means about -30% to -65%; inactive means above about -30%; note: % is set by controls: 0 for no effect and ±100 for the full control effect
#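 Protein mix (5X: 125 nM each GST-E1A, His-CtBP) was incubated with pinned compound 2 h at 37 deg C in dark, in 50 mM Tris pH 8.0 buffer with 300 mM NaCl. Glutathione donor and nickel acceptor beads followed; AlphaScreen signal read after 1 h.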
# D2 ag: Beta-Arrestin HTS for Positive Allosteric Modulators of the Human D2 Dopamine Receptor: Agonists; DiscoveRx PathHunter D2 beta-arrestin, luminescence, 90 min; 100% = 57 uM dopamine signal; activation, % (no concentration beside the values); 360,000 compounds, 0.084% hits; D(2) dopamine receptor (Homo sapiens), P14416; in the data active = activation above about 40%; inconclusive = about 15% to 40%; inactive = below about 15%; note: compound concentration not given in the record; the text of the record calls up to 30% inactive
#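 Agonist mode: compounds alone added to overnight-plated D2 PathHunter cells for 90 min at 37 C, with 57 uM final dopamine (EC100) defining full response. Beta-arrestin recruitment detected by chemiluminescent reagent, read after 1 h at ambient temperature.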
# The depositor's hits bear a star; ? = inconclusive; . = not tested or not shown; [ ] = dose if it differs, or a comment.
no.	SMILES	TRPV1 potentiator	PINK1 modulator	D2 potentiator	Six1-Eya2 blk	Sfp inh	CtBP-E1A inh	D2 ag
1	CC1CC(C)(C)CC2(C1)NC(=O)N(CC(=O)Nc1ccc(N3CCCCC3)cc1)C2=O (centres undefined)	2	6.6%	10	-11	2%	-6	-3.3
2	CCOc1c(Br)cc(/C=N\NC(=O)c2ccccc2)cc1OC	-18	2.9%	3	-18	4%	-14	0.8
3	O=c1oc(Nc2ccc(F)cc2)nc2ccccc12	-2	-0.2%	-12	11	8%	21	-5.0
4	Cc1ccc(/C=N/NC(=O)C2CC(=O)N(c3ccccc3)C2)s1 (centres undefined)	10	6.9%	-22	16	8%	0	-4.0
5	Clc1ccc2nc(-c3ccccc3)c(CC3CCCCC3)n2c1	.	2.6%	-4	8	.	8	-6.3
6	CCOC(=O)N1CCN(C(=O)CSc2ccccc2)CC1	-12	1.6%	1	2	-10%	11	-3.2
7	Cc1ccc(S(=O)(=O)N2CCOCC2)cc1C(=O)OCC(=O)N(Cc1ccccc1)C(C)C	-12	2.4%	10	-5	.	-4	0.3
8	COc1ccc(C(C)=O)cc1COc1ncnc2ccccc12	9	-1.0%	-5	4	13%	15	-1.5
9	CCOC(=O)c1oc2ccccc2c1COC(=O)CNC(=O)c1ccco1	0	0.1%	22	-9	.	11	0.6
10	O=C(c1ccco1)n1nc(-c2ccc(Cl)cc2)nc1NCc1ccco1	3	.	-4	1	-6%	9	-0.3
11	CC(C)(C)OC(=O)N1CCN(C(=O)OCC2c3ccccc3-c3ccccc32)CC1C(=O)O (centres undefined)	.	3.5%	-49	7	.	0	-1.5
12	Cc1ncoc1C(=O)NC1CCCc2c1cnn2-c1cc(F)cc(F)c1 (centres undefined)	.	0.3%	-8	-5	.	2	-3.5
13	OC(COc1ccccc1Br)CN1CCNCC1 (centres undefined)	9	-1.1%	-12	8	-7%	-7	-3.0
14	CCOc1cc2c(cc1OC)C(NC(=O)C(F)(F)F)CC2=O (centres undefined)	-9	-0.3%[38.3 µM]	1	4	-1%	2	-0.4
15	CCOC(=O)c1sc(NC(=O)CN2CC(C)OC(C)C2)nc1C (centres undefined)	?	-1.4%	0	4	-9%	1	-0.4
16	O=C(O)CCN1C(=O)c2ccc(NC(=O)CSc3ccccc3)cc2C1=O	-8	3.8%	-7	-4	7%	1	-2.9

# Records 15 to 16, quoted:
no.	SMILES	TRPV1 potentiator	PINK1 modulator	D2 potentiator	Six1-Eya2 blk	Sfp inh	CtBP-E1A inh	D2 ag
15	CCOC(=O)c1sc(NC(=O)CN2CC(C)OC(C)C2)nc1C (centres undefined)	?	-1.4%	0	4	-9%	1	-0.4
16	O=C(O)CCN1C(=O)c2ccc(NC(=O)CSc3ccccc3)cc2C1=O	-8	3.8%	-7	-4	7%	1	-2.9

# Next records.
no.	SMILES	TRPV1 potentiator	PINK1 modulator	D2 potentiator	Six1-Eya2 blk	Sfp inh	CtBP-E1A inh	D2 ag
17	COc1ccccc1CCNS(=O)(=O)c1cc2c3c(c1)CCN3C(=O)CC2	-8	0.4%	-2	1	.	3	-2.8
18	CC(C)(C)n1nnnc1C(c1cccnc1)N1CCOCC1 (centres undefined)	-6	0.2%	1	5	13%	1	-8.0
19	CC(SCc1ccccc1)C(=O)NC1CCCC1 (centres undefined)	-6	0.3%	-5	4	16%	2	-3.1
20	O=C(O)C1CCN(C(=O)NC2CCCCC2)CC1	10	2.1%	-15	3	2%	3	0.4
21	CCc1nnc(NC(=O)c2cc(-c3ccncc3)nc3ccccc23)s1	14	-0.2%	-6	-2	9%	-17	8.3
22	CC1CCCN(C(=O)c2ccc3c(c2NCCO)C(=O)c2ccccc2C3=O)C1 (centres undefined)	-3	2.7%	15	?	-8%	?	-4.5
23	Cc1ccc(NC(=O)CSC2=NN3CCCC(=O)N=C3S2)c(C)c1	-2	2.9%	-4	-11	-5%	3	0.6
24	COC(=O)C(CO)NC(=O)C(C)NC(=O)CNC(=O)OCc1ccccc1 (centres undefined)	23	-0.2%	-4	11	3%	7	-2.5
25	CN(CCOC(=O)/C=C/c1ccco1)Cc1ccccc1	13	1.8%	-7	-14	20µM*	.	-6.2
26	CCOc1cc(/C=N/NC(=O)c2ccccn2)ccc1OC(=O)c1ccc(F)cc1	-3	2.9%	-13	-15	-2%	-4	4.8
27	CCOC(=O)N1CCC(NC(=O)CCN2C(=O)COc3ccccc32)CC1	-10	-0.8%[38.3 µM]	-4	1	14%	37	-0.1
28	CNC(=O)c1nc(C)n(-c2cc(Cl)cc(Cl)c2)n1	?	7.6%[38.3 µM]	0	2	-4%	-3	-1.7
29	CCOC(=O)Cc1csc(NC(=O)COc2ccc(N(C)S(=O)(=O)c3cccs3)cc2)n1	?	0.8%	12	-9	15%	-1	2.0
30	O=C(Nc1cccc(S(=O)(=O)NC2=NCCCCC2)c1)c1ccc(Cl)cc1	22	-0.4%	0	-23	.	-10	4.0
31	O=c1n(-c2cccc(Cl)c2)c(=O)n2n1CCC2	7	-5.8%[38.3 µM]	-14	6	-16%	2	-2.5
32	COc1ccc(CNC(=O)CS(=O)Cc2nc(-c3ccc(C)cc3)oc2C)cc1 (centres undefined)	.	0.1%	1	13	8%	0	-2.4
33	Cc1ccc(C)c(N2CCN(C(=O)c3ccc(CS(=O)Cc4ccc(Cl)cc4)o3)CC2)c1 (centres undefined)	-10	4.4%	-4	1	-24%	-20	-1.0
34	CC(On1nnc2ccccc21)C(=O)N1CCN(Cc2ccccc2)CC1 (centres undefined)	-12	4.5%	-2	3	17%	5	-4.0
35	O=C(NNC(=S)NC(=O)c1ccccc1)c1ccc(O)cc1	0	7.3%	-17	-11	-4%	-15	1.1
36	CN(CC(=O)Nc1ccccc1C(=O)N1CCCC1)S(=O)(=O)c1ccc(Br)cc1	4	-5.6%[38.3 µM]	-10	18	-1%	44	-2.0
37	O=C1C2CCCCN2C(=O)N1CCN1CCN(c2ccc(F)cc2)CC1 (centres undefined)	.	0.0%	-5	-3	.	7	-3.3
38	O=C(CSc1nnc(-c2ccncc2)o1)N1CCCC1	-8	-0.7%	-7	2	14%	2	-4.6
39	CCN(C(=S)Nc1cccnc1)c1cccc2ccccc12	20	-0.8%	-4	-1	22µM*	.	11
40	COC(=O)Cc1c(C)c2ccc(OCC(=O)N3CCCC(C)C3)c(C)c2oc1=O (centres undefined)	0	0.4%	-9	-9	4%	0	-2.2
41	CCOc1cc(N2CCOCC2)c(OCC)cc1NC(=O)c1cc(C)nc2ccccc12	-3	6.6%	-1	7	11%	-24	-1.9
42	CC(C)(C)CC(=O)NC(=S)Nc1ccccc1[N+](=O)[O-]	-16	0.2%	14	-13	10%	.	1.7
43	CC(C)(C)C(=O)NC(=S)Nc1cccc(C(=O)O)c1	8	-1.5%	-5	12	?	13	-0.7
44	CCN(CC(=O)Nc1ccc(Cl)c(C(F)(F)F)c1)CC(=O)NC1CCS(=O)(=O)C1 (centres undefined)	7	1.3%	-3	-16	-6%	8	-1.2
45	CN(CC1CCCO1)S(=O)(=O)c1ccc(C(=O)Nc2nc3cc4c(cc3s2)OCO4)cc1 (centres undefined)	-21	2.2%	-3	-18	8%	-22	-2.3
46	O=C(Oc1ccc(Cl)c2cccnc12)N1CCOCC1	12	0.0%	-6	1	7%	-1	0.4
47	N=c1oc2ccc(Br)cc2cc1C(=O)NCc1ccc(F)cc1	-2	2.7%	-8	0	7%	-4	-3.8
48	CCC(C)Nc1nc(CN2CCOCC2)nc2sc3c(c12)CCC3 (centres undefined)	-2	0.2%	-1	-2	3%	4	-2.5
49	O=C(Nc1ccc(Cn2cccn2)cc1)c1ccc(COc2cccc(Br)c2)cc1	0	-1.3%	0	4	?	-1	0.7
50	CNc1nc(Nc2ccccc2)nc(OCC(F)(F)F)n1	23	0.8%	-3	-1	14%	-3	5.0
51	C=CCOc1ccc(C(c2c(O)nc(SC)[nH]c2=O)c2c(O)nc(SC)[nH]c2=O)cc1	.	-1.8%	-11	-24	.	-9	-2.0
52	O=C(COc1ccc(F)cc1)Nc1nc(-c2ccccn2)cs1	-15	-5.2%	2	-84*	.	?	-1.4
53	CSc1nnc(C2CCN(CC(=O)Nc3ccccc3N3CCOCC3)CC2)n1C	-3	0.1%	-8	0	20%	5	-0.3
54	C(=Nc1ccc(Nc2ccccc2)cc1)c1ccc2ccccc2c1	6	2.6%	52*	?	45µM*	?	10
55	COc1ccc(S(=O)(=O)NCC(=O)N(CC(=O)NCc2ccco2)Cc2ccc(F)cc2)cc1	2	-0.4%	-11	-10	17%	-11	-0.4
56	CCOC(=O)CCc1nc2ccccc2[nH]c1=O	-2	-0.6%	11	10	9%	3	0.4

# 5 records picked at random from those above, as already listed:
no.	SMILES	TRPV1 potentiator	PINK1 modulator	D2 potentiator	Six1-Eya2 blk	Sfp inh	CtBP-E1A inh	D2 ag
55	COc1ccc(S(=O)(=O)NCC(=O)N(CC(=O)NCc2ccco2)Cc2ccc(F)cc2)cc1	2	-0.4%	-11	-10	17%	-11	-0.4
50	CNc1nc(Nc2ccccc2)nc(OCC(F)(F)F)n1	23	0.8%	-3	-1	14%	-3	5.0
49	O=C(Nc1ccc(Cn2cccn2)cc1)c1ccc(COc2cccc(Br)c2)cc1	0	-1.3%	0	4	?	-1	0.7
51	C=CCOc1ccc(C(c2c(O)nc(SC)[nH]c2=O)c2c(O)nc(SC)[nH]c2=O)cc1	.	-1.8%	-11	-24	.	-9	-2.0
54	C(=Nc1ccc(Nc2ccccc2)cc1)c1ccc2ccccc2c1	6	2.6%	52*	?	45µM*	?	10
